# Bioassay records: PubChem, National Center for Advancing Translational Sciences (NCATS)
# Rango release inh – qHTS Assay for Inhibitors of RanGTP induced Rango (Ran-regulated importin-beta cargo) - Importin beta complex dissociation. Biochemical FRET Rango-importin beta, RanGTP-induced dissociation. Potency, µM (top dose mostly 46.1 µM), without a hit: at the highest dose activity change, negative = inhibition. 340,000 compounds, 0.071% hits; active means falling FRET ratio curve, often poorly fitted, with flat reads before Ran was added; inconclusive means other falling curves, or compound fluorescence or quenching; inactive means flat or rising ratio curve;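 note: potency is the fitted concentration of half-maximal effect; % of control where 0% means no effect; nearly all actives have a fitted effect of over 45% in size; -100% = wells without RanGTP and RCC1; the record marks most hits as doubtful in a second field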
#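 Rango/importin beta premix (0.1/0.25 uM final), PBS + 1 mM DTT + 0.02% Tween-20 + 0.1% BSA; cpd 5 min RT; FRET pre-read; + RanGTP-RCC1 (0.6 uM Ran, 2 mM GTP, 0.2 uM RCC1); 45 min RT; FRET post-read, ex 430, em 486/530 nm.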
# GLA inh pH 4.5 – qHTS Assay for Inhibitors of Human alpha-Galactosidase at pH 4.5 | Alpha-galactosidase A (Homo sapiens), P06280 | activity change, negative = inhibition, % at 105 µM | purified enzyme, 4-MU-alpha-Gal fluorescence, pH 4.5 | AID 1467, 2008 | 230,000 tested, under 10 active; inconclusive = small, poorly fitted or top-dose-only inhibition, or a rising curve; inactive = flat fitted curve, though single readings scatter; no compound was filed as active;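 note: 0% = full activity with enzyme and -100% = basal without enzyme; dose as in the result columns while the protocol names 77 µM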
# Target sequence (P06280 whole entry, looked up): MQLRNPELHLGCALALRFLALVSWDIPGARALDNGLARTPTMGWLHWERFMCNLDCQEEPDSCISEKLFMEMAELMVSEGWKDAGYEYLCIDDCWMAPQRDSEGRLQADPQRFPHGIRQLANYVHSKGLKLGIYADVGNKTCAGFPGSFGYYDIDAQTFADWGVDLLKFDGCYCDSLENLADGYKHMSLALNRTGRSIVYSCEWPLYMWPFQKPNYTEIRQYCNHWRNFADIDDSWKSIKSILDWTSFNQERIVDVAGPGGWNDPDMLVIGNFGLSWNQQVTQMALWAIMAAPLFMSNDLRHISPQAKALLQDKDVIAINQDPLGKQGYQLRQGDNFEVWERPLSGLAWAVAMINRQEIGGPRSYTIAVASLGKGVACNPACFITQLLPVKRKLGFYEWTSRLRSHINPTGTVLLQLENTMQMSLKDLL
# Rango-impB inh – qHTS Assay for Inhibitors of Rango (Ran-regulated importin-beta cargo) - Importin beta complex formation | Rango CFP/YFP FRET sensor + importin beta, 45 min | Potency, µM (doses to about 92.2 µM), for the others: top-dose inhibition of complex formation | 340,000 compounds, 0.031% hits | AID 540263, 2011; active = rising FRET ratio curve, often small or poorly fitted; inconclusive = mostly compound fluorescence or quenching in the first reads; inactive = flat curves in all reads;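 note: potency is the fitted concentration of half-maximal effect; 0% = DMSO wells and 100% = buffer wells lacking importin beta; nearly all actives have a fitted effect of over 15% in size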
#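 FRET biosensor (snurportin 1 IBB flanked by EYFP and cerulean), 50 nM, with compound 5 min, then 0.125 microM importin beta in PBS, 1 mM DTT, 0.02% Tween-20, 0.1% BSA. CFP/YFP ratio read after 45 min at room temperature; pre-read flags interference.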
# miR-21 FLuc – qHTS Assay for Modulators of miRNAs and/orActivators of miR-21; 340,000 tested, under 10 active; Potency, µM (doses to about 38.3 µM), for inactives: top-dose reporter change, positive = more light; AID 2288, 2010; HeLa miR-21 FLuc reporter, luciferase, 48 h; active = well fitted rising curve with a large enough effect; inconclusive = small, poorly fitted or top-dose-only effect; inactive = no such curve, though single readings can be large or run the other way;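 note: % of control where 0% means no effect; miR-21 action dims this reporter so a rising signal means less miR-21 action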
#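 Compounds were titrated across several concentrations (up to approximately 40 uM) and incubated 48 hours with HeLa miR-21-FLuc reporter cells (miR-21 target sequence downstream of FLuc, endogenous miR-21). Readout was firefly luciferase luminescence after lytic detection reagent.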
# * hit, by the source's call; ? = inconclusive; / = no result given. Only part of the results is shown; rates above refer to the full screens.
Rango release inh,GLA inh pH 4.5,Rango-impB inh,miR-21 FLuc,SMILES
0%,8,0.1%,-3%,CC(C)OC(=O)NCN1C(=O)C2C3C=CC(C3)C2C1=O (stereo unspecified)
-1%,-5,4.2%,-15%,Cc1cc(-c2cc(-c3ccccc3)on2)nc(NC2CCCC2)n1
20%,-34,2.4%,-10%,CCOc1c2ccc(C(=O)NCc3ccc(C)cc3)cc2nn1CC
1%,-3,0.2%,-9%,CCOC(=O)Cn1nc(C)c2ccccc2c1=O
3%,2,4.1%,17%,C/C(Cn1nnc([N+](=O)[O-])n1)=N\NC(=O)c1ccc(C)cc1
-15%,-2,6.1%,-19%,CCc1ccc(NC(=O)c2onc(C)c2Cl)cc1
5%,/,-1.9%,/,Cc1c(NS(=O)(=O)c2cccc(C(=O)Nc3ccc(SC(F)F)cc3)c2)c(=O)n(-c2ccccc2)n1C
-13%,0,?,-8%,COc1cccc(/C=C2\C(=O)N(c3cccc(C)c3)C(=O)c3ccccc32)c1
1%,-1,-3.3%,1%,COc1ccccc1N1CCN(C2CCN(C(=O)c3ccc(F)cc3)CC2)CC1
-4%,2,2.6%,-15%,CC1CCN(Cc2nnnn2-c2cccc([N+](=O)[O-])c2)CC1

# Carrying on:
Rango release inh,GLA inh pH 4.5,Rango-impB inh,miR-21 FLuc,SMILES
5%,/,7.3%,0%,Cc1ccccc1CC(=O)N1CCOCC1
27%,/,4.0%,/,COc1ccc(NC(=O)CN(C)C(=O)CSc2nc3ccccc3s2)cc1
3%,9,-4.5%,-10%,CN1CCC(N2CCN(c3cccc(C(F)(F)F)c3)CC2)CC1
1%,4,-3.3%,-19%,Cn1c(=O)[nH]c(=O)c2c1nc(N(CCO)Cc1ccccc1)n2Cc1ccccc1Cl
6%,-1,0.5%,-5%,CCn1cc(C(=O)O)c(=O)c2cnc(N3CCN(C(=S)Nc4ccccc4C(F)(F)F)CC3)nc21
7%,0,3.9%,-2%,COc1ccc(S(=O)(=O)N(C)CC(=O)Nc2c(F)cccc2F)cc1
-4%,/,3.0%,/,O=C(COc1ccc(Cl)c(Cl)c1)NC1CCS(=O)(=O)C1 (stereo unspecified)
-10%,/,-0.8%,/,C[C@@H]1CN([C@@H](C)CO)C(=O)c2cccc(NS(=O)(=O)c3ccc(F)cc3)c2O[C@H]1CN(C)C(=O)NC1CCCCC1
?,-17,-0.4%,-12%,O=C(NC1=NCCS1)Nc1ccccc1
-9%,-14,-0.9%,10%,O=C(/C=C\c1ccc2c(c1)OCO2)NC1(C(=O)Nc2ccc3c(c2)OCO3)CCCCC1

# Carrying on:
Rango release inh,GLA inh pH 4.5,Rango-impB inh,miR-21 FLuc,SMILES
10%,-10,-1.6%,1%,CCN(C(=O)CN1CCN(C)CC1)c1cccc2ccccc12
-3%,/,-6.2%,-8%,COc1ccc(/C=C/C(=O)N2CCOCC2)cc1OC
0%,?,-8.6%,-3%,CCOc1cc(/C=C/c2nc3cc(C)c(C)cc3s2)ccc1OCC(=O)N1CCOCC1
?,2,?,17%,CCOC(=O)C1CCN(C(=O)CCc2c(C)nc3cc(-c4ccccc4)nn3c2C)CC1
-7%,/,0.3%,-11%,O=C(Nc1ccncc1)Nc1ccccc1Cl
32%,/,-0.3%,/,O=C(NCCCN1CCOCC1)C1CCN(S(=O)(=O)c2cccc(Cl)c2Cl)CC1
-6%,/,?,/,Cc1cc(C)c(NC(=O)CNC(=O)c2cc(C3CC3)nn2-c2ccccc2)c(C)c1
5%,-1,-0.3%,3%,CCCC[C@@H]1CNC(=S)N1CCc1cccc2ccccc12
12%,1,-6.1%,-1%,O=C(COC(=O)/C=C/c1cccc(F)c1)NNC(=O)c1ccccc1
-3%,5,-1.4%,-52%,CCN(C(=O)c1ccco1)c1nnc(-c2ccc(OC)cc2)s1

# Next records follow.
Rango release inh,GLA inh pH 4.5,Rango-impB inh,miR-21 FLuc,SMILES
6%,0,2.4%,-1%,CCOC(=O)N1CCN(c2cc3[nH]c(=S)[nH]c3cc2F)CC1
-7%,5,2.6%,-71%,N#Cc1c(N)nc2c(c1N)CC(COc1ccccc1)O2 (stereo unspecified)
-9%,/,-1.5%,-4%,Cc1ccc(S(=O)(=O)NCC2(c3ccccc3)CCN(C)CC2)cc1
3%,/,-4.0%,/,CC1Cc2ccccc2N1C(=O)COC(=O)c1ccc(Cl)c(S(=O)(=O)N2CCOCC2)c1 (stereo unspecified)
0%,?,-2.0%,3%,O=C(COc1cccc(C(F)(F)F)c1)N1CCN(c2ccc(O)cc2)CC1
3%,/,-0.6%,-5%,CCOc1ccc(S(=O)(=O)N2CCOCC2)cc1NC(=O)CSCC(=O)Nc1cccc(C)c1
-5%,4,-1.7%,19%,CN(NC(=O)c1ccccc1)c1nc2ccccc2nc1C(F)(F)F
-1%,0,0.2%,-2%,CN1CCN(C(=O)C23CCC(C)(c4nc5ccccc5nc42)C3(C)C)CC1 (stereo unspecified)
-26%,/,-2.8%,-17%,Cc1c(C(=O)N(C)CCc2cnn(C)c2)oc2c(F)cccc12
6%,3,5.5%,5%,CO/N=C/C(C#N)c1ncc(C(F)(F)F)cc1Cl (stereo unspecified)

# Following part.
Rango release inh,GLA inh pH 4.5,Rango-impB inh,miR-21 FLuc,SMILES
-1%,/,0.6%,3%,O=C(Nc1ccccc1F)C1CCN(S(=O)(=O)c2cccc3nonc23)CC1
11%,/,-2.8%,-6%,Cc1ccccc1-n1ncc2c1CC(C)(C)CC2NC(=O)c1snnc1C (stereo unspecified)
-2%,/,0.2%,-1%,COC(=O)c1ccc(NC(=O)C2CCCN2C(=O)Nc2cccc(C(C)=O)c2)cc1 (stereo unspecified)
12%,-2,0.7%,0%,Cc1cccc(C)c1OCC(=O)N=Nc1c(O)[nH]c2ccc(Br)cc12
-21%,/,-1.3%,2%,COc1ccc(CNC(=O)[C@H](C)NC(=O)C2CC(=O)N(c3ccc4c(c3)OCO4)C2)cc1 (stereo partly specified)
-5%,8,?,-25%,O=C(O)C1C2C=CC(C2)C1C(=O)Nc1ccc2c(c1)OCCO2 (stereo unspecified)
0%,-8,0.5%,-7%,Cc1ccc(Nc2nc(CSc3nnnn3-c3ccccc3)cs2)cc1
0%,/,-1.6%,0%,Cc1c(C)n(Cc2ccc(F)cc2)c2ccc(C(=O)NCCN3CCOCC3)cc12
-7%,/,0.2%,-6%,CCNC(=O)CSc1nc2sccc2c(=O)n1-c1ccccc1
0%,-11,6.4%,1%,CCOc1ccc(N(CC(=O)Nc2c(C)cccc2C)S(=O)(=O)c2c(C)[nH]c(=O)[nH]c2=O)cc1

# Next structures
Rango release inh,GLA inh pH 4.5,Rango-impB inh,miR-21 FLuc,SMILES
-6%,-3,-5.2%,-41%,CC1CN(c2ncnc3c2cnn3-c2ccc(Cl)cc2)CC(C)O1 (stereo unspecified)
2%,-14,-0.3%,-12%,Clc1cccc(CSc2nccn2-c2ccccc2)c1
6%,/,0.2%,/,COc1ccccc1CNCCS(=O)(=O)NCc1ccccc1
5%,/,4.4%,-1%,Cc1ccc(C(=O)Nc2ccccc2C(=O)N2CCCC(C)C2)cc1 (stereo unspecified)
5%,/,1.5%,/,Cc1cc(CNC(=O)C2(C(F)(F)F)C/C(=C\CCO)CCCO2)nn1C (stereo unspecified)
0%,/,1.4%,1%,COc1cccc(CN2CC(C(=O)NCCCCc3ccccn3)CCC2=O)c1 (stereo unspecified)
-5%,/,2.3%,-8%,O=C(C[n+]1ccncc1)c1ccccc1
-12%,/,-7.0%,-1%,COn1c(=O)c(-c2cccc(Br)c2)[n+]([O-])c2ccccc21
0%,5,-2.9%,4%,Cc1ccc(C)n1-c1ccccc1N1CCCCC1
-7%,/,-1.2%,2%,CCC(C)NC(=O)c1cn(CCOC)c(=O)c2c1c1ccccc1n2C (stereo unspecified)

# The listing continues.
Rango release inh,GLA inh pH 4.5,Rango-impB inh,miR-21 FLuc,SMILES
-22%,/,-2.7%,/,O=C(CN1C(=O)c2ccccc2C1=O)OCC(=O)N1CCN(c2ccccc2)CC1
-9%,-8,-5.0%,-6%,CCNc1nc(NCC)n2c(SCC(=O)Nc3ccc(F)cc3[N+](=O)[O-])nnc2n1
4%,4,1.2%,13%,COc1ccc(OC)c(N2CC(O)(c3ccccc3)[N+]3=C2SCCC3)c1 (stereo unspecified)
?,/,?,/,CCOc1ccc(C2=CC(c3ccccc3)n3ncnc3N2)cc1 (stereo unspecified)
-10%,/,-1.4%,6%,COc1ccc(-n2c(C)nnc2SCC(=O)NC2CC2)cc1
2%,5,2.5%,0%,Cc1cc(NC(=O)CSc2nncn2N)no1
?,?,?,-9%,O=C(Oc1cc2oc(=O)c3c(c2cc1Cl)CCCC3)c1ccco1
-3%,-1,4.4%,-8%,CCc1ccc2[nH]c(=O)c(CN(CCN(C)C)C(=O)Nc3ccccc3OC)cc2c1
8%,1,1.1%,-1%,Cc1csc2ncc(C(=O)Nc3ccc(C(F)(F)F)cc3)c(=O)n12
23%,/,5.4%,-1%,CSc1ccc(CN(C)C(=O)CNC(=O)c2sc3ccccc3c2Cl)cc1

# 12 successive entries out of the list so far:
Rango release inh,GLA inh pH 4.5,Rango-impB inh,miR-21 FLuc,SMILES
0%,5,-2.9%,4%,Cc1ccc(C)n1-c1ccccc1N1CCCCC1
-7%,/,-1.2%,2%,CCC(C)NC(=O)c1cn(CCOC)c(=O)c2c1c1ccccc1n2C (stereo unspecified)
-22%,/,-2.7%,/,O=C(CN1C(=O)c2ccccc2C1=O)OCC(=O)N1CCN(c2ccccc2)CC1
-9%,-8,-5.0%,-6%,CCNc1nc(NCC)n2c(SCC(=O)Nc3ccc(F)cc3[N+](=O)[O-])nnc2n1
4%,4,1.2%,13%,COc1ccc(OC)c(N2CC(O)(c3ccccc3)[N+]3=C2SCCC3)c1 (stereo unspecified)
?,/,?,/,CCOc1ccc(C2=CC(c3ccccc3)n3ncnc3N2)cc1 (stereo unspecified)
-10%,/,-1.4%,6%,COc1ccc(-n2c(C)nnc2SCC(=O)NC2CC2)cc1
2%,5,2.5%,0%,Cc1cc(NC(=O)CSc2nncn2N)no1
?,?,?,-9%,O=C(Oc1cc2oc(=O)c3c(c2cc1Cl)CCCC3)c1ccco1
-3%,-1,4.4%,-8%,CCc1ccc2[nH]c(=O)c(CN(CCN(C)C)C(=O)Nc3ccccc3OC)cc2c1
8%,1,1.1%,-1%,Cc1csc2ncc(C(=O)Nc3ccc(C(F)(F)F)cc3)c(=O)n12
23%,/,5.4%,-1%,CSc1ccc(CN(C)C(=O)CNC(=O)c2sc3ccccc3c2Cl)cc1

# Additional results follow.
Rango release inh,GLA inh pH 4.5,Rango-impB inh,miR-21 FLuc,SMILES
1%,-4,-0.2%,-1%,NS(=O)(=O)c1ccc(NC(=O)COC(=O)CCC2CCCCC2)cc1
-2%,-2,-1.4%,-2%,CCOc1ccc(-n2c(=O)cc(N3CCN(c4ccccc4)CC3)[nH]c2=O)cc1
1%,/,0.1%,-1%,COc1cccc(-c2nc(CS(=O)(=O)CC(=O)NCCc3ccccc3)c(C)o2)c1
2%,-3,1.9%,11%,O=C(CSc1nnc2sc3ccccc3n12)NCc1ccco1
17%,/,2.2%,-1%,O=C(NCCCN1CCOCC1)c1nn2c(C(F)(F)F)cc(-c3ccco3)nc2c1Cl
2%,-2,-1.7%,2%,CCOC(=O)c1c(-c2ccc(OC)cc2)csc1NC(=O)CSc1nnc(C)c(=O)[nH]1
7%,-6,4.3%,-12%,COc1ccc(C(=O)Nc2cc(C)cc(C)c2)cc1S(=O)(=O)N1CCOCC1
?,/,?,/,O=C(COc1ccc(Cl)cc1Br)NCC(c1ccco1)N1CCCC1 (stereo unspecified)
25%,?,6.4%,-4%,C/C=C/C=N/Nc1nc(C)cc(=O)[nH]1
9%,-1,-0.1%,-10%,N#Cc1cnc(NOCc2ccc(Cl)cc2)nc1
3%,7,2.9%,-5%,CCN(CC)CCCNC(=O)C(C)n1nc(C)c2sc3ccccc3c2c1=O (stereo unspecified)
